2A StopGo – lowers the luciferase signal of an FMDV 2A StopGo reporter; 410,000 compounds, 1.2% hits; AID 1159524; Potency, µM (top dose mostly 57.9 µM), without a hit: top-dose signal change, negative = less light; human cells with a luciferase reporter of 2A StopGo recoding; control for the full effect not named in the record; active = well fitted falling curve with a large enough effect; inconclusive = small, poorly fitted or top-dose-only effect; inactive = no such curve, though single readings can be large or run the other way; tested in HEK293T cells; note: % is set by controls: 0 for no effect and ±100 for the full control effect; nearly all actives have a fitted effect of over 45% in size; luciferase light after 4 h
RE007 growth inh – less growth of the S. pombe RE007 Vpr strain; Potency, µM (series often up to 92.2 µM), inactives show at the top dose activity change, negative = less growth; S. pombe RE007 Vpr strain, BacTiter-Glo ATP luminescence, 24 h; control for the full effect not named in the record; 360,000 compounds, 0.21% hits; active = well fitted falling curve with a large enough effect; inconclusive = small, poorly fitted or top-dose-only effect; inactive = no such curve, though single readings can be large or run the other way;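 note: % is set by controls: 0 for no effect and ±100 for the full control effect; nearly all actives have a fitted effect of over 50% in size; the assay follows cell death caused by Vpr and the record does not say whether a fall means rescue or toxicity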
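Fission yeast strain RE007, carrying one chromosomally integrated HIV-1 vpr copy, was seeded at OD 0.01 in PMG+AL medium with 23 nL pinned compound. After 24 h at 30 °C and 99% humidity, viability was read by BacTiter-Glo luminescence.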
SARS PLpro yeast – SARS-CoV PLP inhibition in yeast; S. cerevisiae expressing SARS-CoV PLpro, growth rescue; control for the full effect not named in the record; Potency, µM (doses to about 32.9 µM), inactives show top-dose activity, positive = growth rescue; 330,000 compounds, 0.19% hits; AID 485353; active means well fitted rising curve with a large enough effect; inconclusive means small, poorly fitted or top-dose-only effect; inactive means no such curve, though single readings can be large or run the other way; note: 0% is about no effect; nearly all actives have a fitted effect of over 55% in size; growth read by luminescence after 48 h
Starred values were filed as active, the others as inactive; ? = inconclusive; [ ] = another dose, or the depositor's remark. Potency is the fitted concentration of half-maximal effect. These rows are one share of the data (hit frequency here may not be typical).

Under each structure: 2A StopGo	RE007 growth inh	SARS PLpro yeast
> Cc1n[nH]c(=O)c2c(NC(=O)CSc3nnc(-c4ccco4)n3C)oc(C)c12
 : -1%	-4%	1%
> Cc1ccc(C(=O)NC(Cc2ccc(C(C)(C)C)cc2)C(=O)O)cc1 (stereo not drawn)
 : 1%	5%	1%
> COC(=O)[C@@]1(C)[C@H]2C(=O)N(Cc3ccccc3)C(=O)[C@H]2[C@H]2CN(C)C(=NC3CCCCC3)N21
 : -2%	-13%	-5%
> CC(C)n1nc(C(=O)Nc2cccc(S(=O)(=O)N3CCOCC3)c2)c2ccccc2c1=O
 : -5%	3%	-1%
> O=C(OCC(=O)N1CCc2ccccc2C1)c1ccc(O)cc1
 : 0%	0%	-3%
> O=C(Nc1ccc(S(=O)(=O)Nc2nccs2)cc1)c1ccccc1OC(F)F
 : 71%[activator]	9%	0%
> CC(C)(CNC(=O)c1cccs1)N1CCOCC1
 : -7%	-20%	-6%
> CC(Sc1nnc(C2CC2)n1C1CC1)C(=O)Nc1ccc(C(N)=O)cc1 (stereo not drawn)
 : -9%	7%	-1%
> CC(Sc1nc2ccccc2c(=O)n1CC1CCCO1)C(=O)N(C)c1ccccc1 (stereo not drawn)
 : ?	10%	1%[6.58 µM]
> COc1cc(OC)c([N+](=O)[O-])cc1/C=N/NC(=O)c1ccncc1
 : 10%	9%	0%

The list goes on, starting with the last 7 of the part before.
Under each structure: 2A StopGo	RE007 growth inh	SARS PLpro yeast
> CC(C)n1nc(C(=O)Nc2cccc(S(=O)(=O)N3CCOCC3)c2)c2ccccc2c1=O
 : -5%	3%	-1%
> O=C(OCC(=O)N1CCc2ccccc2C1)c1ccc(O)cc1
 : 0%	0%	-3%
> O=C(Nc1ccc(S(=O)(=O)Nc2nccs2)cc1)c1ccccc1OC(F)F
 : 71%[activator]	9%	0%
> CC(C)(CNC(=O)c1cccs1)N1CCOCC1
 : -7%	-20%	-6%
> CC(Sc1nnc(C2CC2)n1C1CC1)C(=O)Nc1ccc(C(N)=O)cc1 (stereo not drawn)
 : -9%	7%	-1%
> CC(Sc1nc2ccccc2c(=O)n1CC1CCCO1)C(=O)N(C)c1ccccc1 (stereo not drawn)
 : ?	10%	1%[6.58 µM]
> COc1cc(OC)c([N+](=O)[O-])cc1/C=N/NC(=O)c1ccncc1
 : 10%	9%	0%
> C=CC[C@@H](CC(=O)OC(C)(C)C)C(=O)OC[C@H]1CCCN1C(=O)[C@@H](CC=C)CC(=O)NCCO
 : -12%	4%	-6%
> CCN(Cc1nc2ccccc2c(=O)[nH]1)C(=O)c1ccc(C)c(NC(=O)c2ccco2)c1
 : ?	10%	1%
> CCC(CCCO)CCC[C@H](C)CCC1OCCO1 (stereo partly drawn)
 : -10%	-10%	2%
> CC(C)CN(C(=O)C1COc2ccccc2O1)c1c(N)n(CC(C)C)c(=O)[nH]c1=O (stereo not drawn)
 : -7%	5%	7%
> CCOC(=O)c1cccc(N2CC3CNC(=O)C2(C(=O)OC)N3C)c1 (stereo not drawn)
 : 1%	6%	-2%
> Cc1cccc(C(C)C)c1NC(=O)CSc1ncnc2[nH]ncc12
 : -26%	-10%	0%
> O=C(Nc1ccc(C(=O)N2CCC(N3CCOCC3)CC2)cc1)c1ccc(Br)o1
 : -13%	59%	-1%
> O=C(CN1C(=O)NC2(CCCc3ccccc32)C1=O)Nc1ccccc1OC(F)F (stereo not drawn)
 : -20%	2%	4%
> CC1(C)CC(=O)c2sc(NS(=O)(=O)c3ccc(Br)cc3)nc2C1
 : -18%	4%	-2%
> C=CC[C@@H](CC(=O)N[C@H](CO)Cc1ccccc1)C(=O)N[C@H](C)COC(=O)[C@@H](CC=C)Cc1ccc(F)cc1
 : ?	-1%	0%

Under each structure: 2A StopGo	RE007 growth inh	SARS PLpro yeast
> Cc1ccccc1SCC(=O)OCC(=O)Nc1ccc(N(C)C)cc1
 : 15%	-6%	1%
> COc1ccc(C(C#N)CCC2OCCO2)cc1OC (stereo not drawn)
 : -20%	0%	0%
> N#Cc1cc(C#N)c(SCC(=O)N2CC(=O)Nc3ccccc32)nc1N
 : -23%	33%	2%
> C[C@H](CO)N1C[C@H](C)[C@@H](CN(C)S(=O)(=O)c2cccs2)Oc2c(NC(=O)Cc3ccccc3)cccc2C1=O
 : 16%	-18%	-36%
> CCC[C@H]1CCCC/C=C\CCCC(=O)OCCN1C(=O)OC(C)(C)C
 : ?	16%	-1%
> CC1CCC2(CC1)NC(=O)N(CC(=O)c1ccc(CNC(=O)C(C)(C)C)s1)C2=O (stereo not drawn)
 : -23%	6%	3%
> C[C@H]1COC(=O)[C@H](Cc2ccc(F)cc2)C/C=C\C[C@H](CC(=O)N(CCO)Cc2ccccc2)C(=O)N1
 : -6%	20%	6%
> CN(C)C1=NCCN1CC1CCCCCC1
 : -10%	-6%	-1%
> COc1ccc(/C=N/Nc2nonc2N)c(OC)c1
 : 37%[activator]	-4%	0%
> COc1cc(NC(=O)c2ccc([N+](=O)[O-])cc2)c(OC)cc1NC(=O)CC(C)C
 : 0%	4%	0%

Under each structure: 2A StopGo	RE007 growth inh	SARS PLpro yeast
> CC(C)c1ccc(NC(=O)CNC(=O)Cn2cnc3ccccc3c2=O)cc1
 : 18%	9%	0%
> CCOC(=O)C1=C(C)Nc2ccccc2N/C1=N\S(=O)(=O)c1cccc(Cl)c1
 : -21%	4%	0%
> Cc1nc(SCC(=O)Nc2ccccc2Cl)c2c(C)c(C)sc2n1
 : -26%	-3%	-3%
> CCOC(=O)C1CCN(C(=O)c2ccc3c(c2)OCCO3)CC1
 : 44%[activator]	9%	-5%
> CCOc1[nH]n(-c2ccccc2)c(=O)c1C=NCc1cccnc1
 : 17%	2%	-7%
> CC(OC(=O)CNC(=O)c1ccc(F)cc1)C(=O)Nc1ccc(S(=O)(=O)N2CCOCC2)cc1 (stereo not drawn)
 : -9%	-2%	-1%
> [O-][n+]1c2ccccc2c2n1CCN1CCOC21c1ccc(Cl)cc1 (stereo not drawn)
 : 30%[activator]	2%	4%
> NC(=O)c1cc([N+](=O)[O-])c(Cl)cc1NCc1cccnc1
 : 0%	-4%	-3%
> COC(=O)CCNS(=O)(=O)c1ccc2nsnc2c1
 : 42%[activator]	8%	2%
> O=C(C[C@H]1C/C=C\CC[C@H](Cc2ccc(F)cc2)C(=O)OC[C@H]2CCCN2C1=O)NCCO
 : -7%	0%	0%

Under each structure: 2A StopGo	RE007 growth inh	SARS PLpro yeast
> O=C(Nc1ccccc1N1CCOCC1)c1cccc(S(=O)(=O)N2CCOCC2)c1
 : -10%	5%	7%
> COc1ccc(S(=O)(=O)N2CCOCC2)cc1NC(=O)c1ccc2c(c1)OCO2
 : -20%	-2%	-3%
> O=C1CCc2cc(S(=O)(=O)NC3CCCCC3)ccc2N1
 : 36%[activator]	-10%	-5%
> O=C(CC1SC(N2CCCCC2)=NC1=O)Nc1ccc(C(=O)NCCc2ccc(F)cc2)cc1 (stereo not drawn)
 : -21%	0%	5%
> O=C(CN1CCN(c2ccccc2O)CC1)Nc1ccnn1C1CCCC1
 : ?	4%	1%
> COc1ccc([C@H]2CC(=O)C=C(c3ccccc3)C2)cc1
 : 5%	-2%	1%
> CC1CCCC(NC(=O)COC(=O)c2ccc3c(c2)OCCO3)C1C (stereo not drawn)
 : -18%	-5%	-6%
> COc1cccc(NC(=O)CN(C)CC(=O)c2c(N)n(Cc3ccccc3)c(=O)n(C)c2=O)c1
 : ?	-14%	-3%
> CCOc1ccc(C(=O)NC(C(=O)NCC(c2cccs2)N(C)C)C(C)C)cc1 (stereo not drawn)
 : -1%	-5%	-3%[6.58 µM]
> O=C(CN1C(=O)NC2(CCCc3ccccc32)C1=O)c1ccc(F)cc1 (stereo not drawn)
 : -8%	2%	1%

Under each structure: 2A StopGo	RE007 growth inh	SARS PLpro yeast
> Cc1[nH]c(=S)c(C#N)c(-c2ccco2)c1C(=O)N(C)C
 : -2%	27%	3%
> Cc1ccc(NC(=O)c2nc[nH]c2C(=O)NCCCCNC(=O)c2[nH]cnc2C(=O)Nc2ccc(C)cc2)cc1
 : ?	1%	3%
> COc1cc(C(=O)Nc2ccc3nc(N4CCOCC4)sc3c2)cc(OC)c1OC
 : -25%	-5%	1%
> C[C@@]12C(=O)NCC(=O)N1[C@@H]1c3cc(Br)ccc3OC[C@@H]1[C@@H]2c1ccccc1
 : -18%	11%	5%
> COc1cc(OC)c(C(=O)OCC(=O)Nc2nnc(-c3ccccc3)o2)cc1OC
 : -12%	-2%	1%
> Cc1csc(=O)n1CCC(=O)OC(C)C(=O)Nc1ccc(N2CCOCC2)cc1 (stereo not drawn)
 : -6%	-1%	2%
> COc1ccc([C@H]2CC(=O)C=C(c3ccccc3-c3ccccc3)C2)cc1
 : 0%	-4%	1%
> COc1ccccc1-c1sc2ccccc2c1C#CC1(O)CCCCC1
 : -19%	4%	-2%
> COc1ccc2c(c1)[C@H]1[C@H](CO2)[C@H](c2ccccc2)[C@]2(C)C(=O)Nc3cc(Cl)ccc3C(=O)N12
 : 0%	-18%	-1%
> COCC(C)n1c(SCC(=O)Nc2nccs2)nc2ccccc2c1=O (stereo not drawn)
 : -21%	7%	1%

Under each structure: 2A StopGo	RE007 growth inh	SARS PLpro yeast
> C[C@H](CO)N1C[C@H](C)[C@@H](CN(C)C(=O)NC2CCCCC2)Oc2ccc(NC(=O)CCC(F)(F)F)cc2C1=O
 : 2%	13%	-8%
> COc1ccccc1N1CCN(CC(=O)Nc2ccc(S(=O)(=O)N3CCCCCC3)cc2)CC1
 : ?	-6%	0%
> CCCn1c(SCC(=O)N(C)CC(=O)Nc2ccc(Cl)cc2)n[nH]c1=O
 : -10%	9%	-8%
> Cc1ccc(NC(=O)Cn2nc(C(=O)O)c3ccccc3c2=O)cc1S(=O)(=O)N1CCOCC1
 : 4%	-4%	-1%
> C[C@@H](CSc1ccc(Br)cc1)CN1CC[C@H](C(C)(C)C)CCC1=O
 : -24%	14%	-8%
> COc1ccc(-c2csc(NC(=O)c3cc(=O)c4ccccc4o3)n2)cc1OC
 : -13%	-3%	4%
> Cc1c(Cl)cccc1NC(=O)CNC(=O)C1CCN(C(=O)Nc2ccccc2)CC1
 : 1%	3%	3%
> Cc1ccc(C)c(NC(=O)CN(C)C(=O)c2ccccc2OCc2c(C)noc2C)c1
 : -20%	1%	1%
> Cc1ccc(S(=O)(=O)N2CCCCC2)cc1NC(=O)CCNC(=O)c1ccccc1
 : ?	2%	0%
> Cc1ccc(S(=O)(=O)N(C)C)cc1NC(=O)CSc1nnc(C2CC2)n1C1CC1
 : -18%	11%	3%

A stretch of the results above:
Under each structure: 2A StopGo	RE007 growth inh	SARS PLpro yeast
> Cc1n[nH]c(=O)c2c(NC(=O)CSc3nnc(-c4ccco4)n3C)oc(C)c12
 : -1%	-4%	1%
> Cc1ccc(C(=O)NC(Cc2ccc(C(C)(C)C)cc2)C(=O)O)cc1 (stereo not drawn)
 : 1%	5%	1%

More compounds:
Under each structure: 2A StopGo	RE007 growth inh	SARS PLpro yeast
> Nc1[nH]ncc1-c1ccc(F)cc1
 : -15%	8%	-6%
> COc1ccc2c(c1)CN(C)S(=O)(=O)c1ccccc1-2
 : -16%	-13%	-9%
> CCN(CC)CCCN=C1N[C@@H](c2cccc(C(F)(F)F)c2)C(C(=O)OC)=C(C)N1CC
 : -4%	9%	1%
> C=CCn1c2ccccc2c(=O)c2cc(C#Cc3ccccn3)ccc21
 : 32%[activator]	-9%	-2%
> Cc1cc(C)c(C#N)c(N2CCN(C(=O)C3COc4ccccc4O3)CC2)n1 (stereo not drawn)
 : -26%	-4%	4%
> Cc1ccc(C(=O)Nc2ccccc2N2CCCC2)s1
 : 13%	?	-6%
> COC(=O)c1sccc1NC(=S)N1C(C)CCCC1C (stereo not drawn)
 : -13%	26%	0%
> CC[C@H]1c2[nH]c3ccccc3c2C[C@@H]2C(=O)N(c3ccc(F)cc3)C(=O)N21
 : ?	-27%	2%
> CCOC(=O)c1c(NC(N)=O)nc2n1CCC2
 : -19%	-1%	2%
> FC(F)(F)c1cc(CCN2CCNC[C@H]2Cc2cccc3ccccc23)cc(C(F)(F)F)c1
 : -28%	4%	0%

Under each structure: 2A StopGo	RE007 growth inh	SARS PLpro yeast
> Cc1ccc(NC(=O)CC(NC(=O)c2ccccc2Cl)c2ccccc2)nc1 (stereo not drawn)
 : -22%	3%	-5%
> CC(=O)c1ccc(S(=O)(=O)Nc2ccc(S(=O)(=O)N3CCCCC3)cc2)cc1
 : 61%[activator]	-7%	-1%
> Cc1ccc(C)c(S(=O)(=O)N2CCN(C(=O)c3n[nH]c(=O)c4ccccc34)CC2)c1
 : -25%	3%	3%
> COc1ccc(C2c3[nH]c4ccccc4c3C[C@H]3C(=O)N(c4ccccc4C(=O)N4CCC[C@@H]4C(=O)O)C(=O)N23)cc1 (stereo partly drawn)
 : -14%	7%	1%
